# ClpP mod = qHTS Assay for Activators of ClpP; purified B. subtilis ClpP, FRET peptide cleavage, 20 min; 340,000 compounds, 1.9% hits; AID 651965, 2013; ATP-dependent Clp protease proteolytic subunit (Bacillus subtilis (strain 168)), P80244; Potency, µM (top dose mostly 57.5 µM), without a hit: top-dose activity change, negative = active; active = well fitted falling curve with a large enough effect; inconclusive = small, poorly fitted or top-dose-only effect; inactive = no such curve, though single readings can be large or run the other way; note: potency is the fitted concentration of half-maximal effect; the source files actives as falling curves though it sought activators and does not explain the sign; nearly all actives have a fitted effect of over 65% in size; many hits overshoot -100%
# Target sequence (P80244 whole entry, looked up): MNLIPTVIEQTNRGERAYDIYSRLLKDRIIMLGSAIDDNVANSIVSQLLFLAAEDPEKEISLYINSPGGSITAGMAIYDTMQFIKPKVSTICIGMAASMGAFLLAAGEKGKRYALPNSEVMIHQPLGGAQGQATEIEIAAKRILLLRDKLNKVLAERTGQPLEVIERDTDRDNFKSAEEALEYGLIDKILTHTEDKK
#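 FRET quenching reversal measured ClpP activation: 10 microg/mL B. subtilis ClpP at pH 8 with the FRET-FV decapeptide, read at 430 nm after 320 nm excitation. The 20-min minus 0-min signal was scaled between DMSO/no-enzyme wells and ADEP (5.8 microM final).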
# TRPV1 PAM = potentiators of human vanilloid receptor 1 (TRPV1). TRPV1-expressing cells, Fluo-8 calcium influx, capsaicin EC20 potentiation; host cell line not named in the record; control for the full effect not named in the record. Q8NER1. potentiation, % at 8.33 µM. 320,000 compounds, 0.02% hits; active means potentiation above 80%; inconclusive means 30% to 80%; inactive means below 30%; note: 0% is about no effect
#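 Fluo-8 calcium influx in TRPV1-expressing cells, kinetic read (ex 480/em 520 nm). Compound added and read 3 min for agonist activity, followed by capsaicin at EC20 final and 2 min further read for enhancement.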
# gsp agonist = gsp mutant agonism; gsp mutant cells, cAMP HTRF, 30 min; control for the full effect not named in the record; 340,000 compounds, 0.13% hits; Potency, µM (top dose mostly 76.9 µM), for the others: at the top dose activation (cAMP increase), actives largely listed as activators; AID 624287; active = well fitted activation curve with a large enough effect; inconclusive = small, poorly fitted or top-dose-only effect, or another doubt; inactive = no such curve, though single readings can be large or run the other way; cell line not stated here;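 note: phosphodiesterase inhibitor Ro 20-1724 added with compounds to block cAMP breakdown; potency is the fitted concentration of half-maximal effect; nearly all actives have a fitted effect of over 60% in size; about a fifth of the inactives were tested at one dose only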
#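 Cells stably selected in G418 were plated at 2000/well, grown 16-24 hr, then given compounds in DMSO with the PDE inhibitor […] (300 uM solution added) for 30 min at 37C; cAMP was read by HTRF.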
# Sfp PPTase inh = blocks B. subtilis Sfp PPTase activity; Q9F4F7; Biochemical Sfp PPTase activity, qHTS; Potency, µM, for the others: max response, negative = inhibition, actives largely listed as inhibitors; 310,000 compounds, 3.5% hits; AID 1490; active = well fitted inhibition curve with a large enough effect; inconclusive = small, poorly fitted or top-dose-only effect, or another doubt; inactive = no such curve, though single readings can be large or run the other way;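 note: the enzyme is Sfp with the accession as filed and its product quenches rhodamine fluorescence; potency is the fitted concentration of half-maximal effect; 0% = enzyme reaction without inhibitor and -100% = no enzyme wells; top concentration of the series not given in the record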
#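 After 15 min at room temperature with compound, 15 nM Sfp received 5 uM rhodamine-CoA plus 12.5 uM BHQ-2-ybbR (50 mM Hepes pH 7.6, 10 mM MgCl2). Rate came from the fluorescence difference over 30 min, ex 525/em 598 nm.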
# Menin MLL FP FL = inhibitors of human menin-MLL interaction, wild-type MLL peptide. Fluorescence polarization, fluorescein-MLL peptide displacement from menin. FP activity change, % at 61.4 µM. 290,000 tested, under 10 active. AID 1766; inconclusive = falling polarisation curve, or a change in total fluorescence; inactive = total fluorescence flat and polarisation flat or rising; no compound was filed as active; the % refers to the polarisation; negative = inhibition;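 note: % of control where 0% means no effect; inhibitors lower the polarisation; unlabelled MLL peptide was the positive control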
# gsp antagonist = antagonists of gsp mutant (McCune-Albright syndrome); Potency, µM (top dose mostly 76.9 µM), for the others: at the highest dose activity change, negative = inhibition, usual class: inhibitors; gsp-mutant cells, cAMP HTRF, 30 min; control for the full effect not named in the record; 340,000 compounds, 0.4% hits; active = falling curve of any shape with a large fitted effect; inconclusive = falling curve, mostly with a smaller effect; inactive = flat or rising curve; cell line not stated here;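 note: intracellular cAMP measured with PDE inhibitor Ro 20-1724 present during compound exposure; potency is the fitted concentration of half-maximal effect; % is set by controls: 0 for no effect and ±100 for the full control effect; nearly all actives have a fitted effect of over 65% in size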
#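 Cells, 2000/well, grown 16–24 h in DMEM 10% FBS with 0.5 mg/ml G418, then compounds plus […] (300 uM addition stock), 30 min at 37C. cAMP read by HTRF (cAMP-d2 and anti-cAMP antibody-K in lysis buffer) after 30 min RT.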
# TRPML1 inh = inhibitors of human TRPML1 channel; activity change, negative = inhibition, % (test concentration not listed); AID 624415; TRPML1-inducible cells, Ca2+ dye fluorescence, FDSS; stronger effect = lower value; inhibition of EC80 agonist-evoked calcium signal; Q9GZU1; 390,000 compounds, 0.02% hits; in the data active means activity change below about -50%; inconclusive means about -30% to -50%; inactive means above about -30%;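 note: stimulus is agonist 54-4 at its EC80 concentration; % is set by controls: 0 for no effect and ±100 for the full control effect; compound concentration not given in the record; the text of the record puts the active cut at -80%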
# Target sequence (Q9GZU1 whole entry, looked up): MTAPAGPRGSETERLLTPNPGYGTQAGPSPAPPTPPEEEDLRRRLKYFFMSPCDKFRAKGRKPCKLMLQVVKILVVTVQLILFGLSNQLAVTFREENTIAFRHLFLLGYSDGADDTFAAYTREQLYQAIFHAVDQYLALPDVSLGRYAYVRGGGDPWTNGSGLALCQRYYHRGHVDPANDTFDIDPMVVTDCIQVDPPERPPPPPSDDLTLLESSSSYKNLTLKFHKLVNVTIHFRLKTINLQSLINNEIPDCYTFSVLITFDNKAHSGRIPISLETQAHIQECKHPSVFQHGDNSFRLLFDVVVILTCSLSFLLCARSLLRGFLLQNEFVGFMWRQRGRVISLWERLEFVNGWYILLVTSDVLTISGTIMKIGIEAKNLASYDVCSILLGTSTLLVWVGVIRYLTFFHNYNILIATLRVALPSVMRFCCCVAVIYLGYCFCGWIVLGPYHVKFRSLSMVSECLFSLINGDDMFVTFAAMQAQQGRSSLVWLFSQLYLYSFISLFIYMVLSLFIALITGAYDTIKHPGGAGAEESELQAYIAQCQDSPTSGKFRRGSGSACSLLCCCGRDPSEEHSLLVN
#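 Tet-induced TRPML1-DL cells loaded with Ca8 no-wash calcium dye were read kinetically on FDSS. Compound addition was followed by EC80 agonist 54-4 (4 uM final); inhibition was read over 110 s.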
# Starred values were filed as active, the others as inactive; ? = inconclusive; . = no result given; & = joins results of further samples; ! = repeats disagree; [ ] = dose if it differs, or a comment.
SMILES,ClpP mod,TRPV1 PAM,gsp agonist,Sfp PPTase inh,Menin MLL FP FL,gsp antagonist,TRPML1 inh
CC(C)(C)NC(=O)CN(C(=O)CS(=O)CC(=O)Nc1ccc(F)cc1)c1ccccc1 (centres undefined),-0.9%,-10,-5%,11%,0.6,12%,22
Cn1nc(C(F)(F)F)c(C#N)c1N1CCN(c2ccccc2F)CC1,-1.6%,-3,24%,9%,4.6,4%,8
Cc1ccc(C)c(N(CC(=O)Nc2ccc(-c3nc4ccc(C)cc4s3)cc2)S(C)(=O)=O)c1,10µM*,1,-18%,16%,8.0,-3%,1
O=C(CN(Cc1ccccc1Cl)C(=O)c1csnn1)NCc1ccccc1,.,-8,4%,12%,8.3,1%,-2
CCC(C)COC(=O)C(C#N)c1nc2ccccc2nc1N1CCCCC1 (centres undefined),4.8%,-16,-1%,-7%,?,-1%,1
COc1cccc(NC(=O)c2ccc3nsnc3c2)c1,.,-11,26%[15.4 µM],2%,0.3,-8%,2
COC(=O)[C@]1(C)N[C@H](c2ccc(-c3cccc(Cl)c3)c(OC)c2)[C@@H]2C(=O)N(C)C(=O)[C@@H]21,0.6%,.,1%,.,.,-17%,-13
CN1CCN(c2ccc(S(=O)(=O)N3CCCCC3)cc2NC(=O)CCc2ccccc2)CC1,0.0%,-16,-22%,.,.,-4%,-1
COc1ccc(OC)c(NC(=O)CN(c2ccc(C(C)C)cc2)S(=O)(=O)c2c(C)noc2C)c1,-1.0%,.,-19%,17%,-1.4,-13%,6
C=CCn1c(CSCc2ccc(F)cc2)n[nH]c1=S,-0.3%,-3,-39%[inhibitor],-8%,-4.2,-4%,-1
Cc1ccc(NC(=O)C2CC2c2ccccc2)cc1 (centres undefined),-1.7%,12,15%,6%,2.6,-10%,-20
O=c1c2ccccc2nc(-c2ccccc2)n1CCCn1ccnc1,-1.3%,-12,0%,14%,-2.5,9%,-4
OC(CNCCc1ccccc1)c1ccccc1 (centres undefined),-1.0%,6,-21%,23%,1.2,2%,9
CCN(CC)S(=O)(=O)c1ccc(Oc2ccccc2OC)cc1,-0.5%,-13,?,-2%,1.7,-16%,.
COc1ccccc1NC(=O)CC(=O)c1ccccc1,.,6,9%,2%,-12,-6%,-4
COc1ccc2nc(NC(=O)c3ccc4ncsc4c3)sc2c1,-19%,-11,-44%[inhibitor],?,-4.2,-7%,5
O=C(Cc1ccc2c(c1)OCCO2)N1CCN(c2ccccc2)CC1,0.8%,1,-6%[15.4 µM],12%,0.1,-25%,-13
CC(C)(C)C(=O)N1CCCC1C(=O)O (centres undefined),1.9%,-1,-5%,14%,5.3,20%,18
COc1ccc(C(=O)C2CCN(C(=S)NCC3CCCO3)CC2)cc1 (centres undefined),1.5%,27,?,20%,1.6,-4%,-2
COc1cccc(N2CCN(C(=O)Cn3c(=O)oc4ccccc43)CC2)c1,-4.1%,-22,20%[15.4 µM],5%,-0.9,-6%,-13
Cc1cc(-n2c(C)cc(C(=O)COc3ccc(F)c(F)c3)c2C)no1,1.8%,-45,3%,.,.,-12%,-2
CCOC(=O)c1cc(-c2ccc(OC)cc2)n(CCC(=O)NC2CCN(Cc3ccccc3)CC2)c1C,1.3%,-10,?,6%,0.7,-5%,25
CC(Sc1nnc2ccccn12)C(=O)N1CCc2ccccc2C1 (centres undefined),-9.9%,1,18%,8%,1.0,8%,-4
Cc1c(C)n(CC(O)CN(CCO)CCO)c2ccccc12 (centres undefined),.,-15,1%,11%,-1.0,-9%,-10
CC(CC(=O)c1ccccc1)=NCCCN=C(C)CC(=O)c1ccccc1,-2.4%,.,?,.,.,.,-1
SMILES,ClpP mod,TRPV1 PAM,gsp agonist,Sfp PPTase inh,Menin MLL FP FL,gsp antagonist,TRPML1 inh
CCCCOC1(c2ccccc2)NC(=S)NN=C1c1ccccc1 (centres undefined),.,6,.,6%,0.3,.,.
CC1(C)Cc2c(sc(NC(=O)C(=O)N3CCCCC3)c2C(=O)O)CO1,-1.8%,8,7%,-7%,.,-5%,0
COc1cccc(C(=O)O/N=C(\N)Cc2ccc(Cl)cc2)c1,-2.7%,9,6%,-11%,-2.7,9%,-6
COCCNC(=O)CNC(=O)c1nn(-c2ccc(OC)c(Cl)c2)c(=O)c2ccccc12,-2.7%,-11,-13%,0%,-3.5,-7%,2
O=C(COc1ccc2c(c1)CCC2)N1CCc2ccccc21,-2.6%,1,4%,-6%,-0.8,-25%,20
C/C(=N\Nc1ccc(S(N)(=O)=O)cc1[N+](=O)[O-])c1ccccc1O,.,-1,5%[15.4 µM],3%,7.6,0%,-7
CC(=O)N1c2ccc(S(=O)(=O)NCC3CCC(C(=O)NC4CCCCC4C)CC3)cc2CC1C (centres undefined),-4.5%,14,26%,9%,-4.5,-4%,5
Cc1ccccc1Oc1ccc2c(c1)[C@@H]1C[C@H](N(C)C(=O)Nc3cc(Cl)cc(Cl)c3)[C@H]([C@H](C)O)C(=O)N1CC2,-9.7%,.,.,.,.,-8%,-3
O=C(C1CCCN(S(=O)(=O)c2cccs2)C1)N1CCC(N2CCCCC2)CC1 (centres undefined),-2.3%,13,14%,7%,0.7,-2%,-20
CC(=O)N(c1ccccc1)C1CCCC1,0.9%,-8,-4%[15.4 µM],8%,0.4,14%,3
Cc1nnc2n1N=C(c1ccc3c(c1)NC(=O)CO3)CS2,-0.7%,-6,?,18%,-0.1,8%,.
COc1cc(OC)c(C(=O)NNC(=S)NC2CCCCC2)cc1OC,-1.8%,22,2%[15.4 µM],2%,8.1,4%,10
CC(NS(=O)(=O)c1ccc(Br)cc1)c1ccccc1 (centres undefined),.,-3,-61%[inhibitor],5%,-3.7,-6%,6
CCn1c2ccccc2c2nnc(SCN3C(=O)c4ccccc4C3=O)nc21,.,.,?,.,.,2%,-3
COc1cc(C(=O)NCc2cccnc2)ccc1OCC(=O)Nc1cccc(C(F)(F)F)c1,-3.7%,6,3%[15.4 µM],.,.,-5%,6
CCCNC(=S)NC1CCCC1,-0.5%,-15,-14%,2%,-3.3,-3%,1
Cc1cccc(N2C(=O)CC(Sc3nnc(C)s3)C2=O)c1 (centres undefined),2.9%,17,-18%,-10%,-2.4,5%,-11
CCOc1cc(C(=O)Nc2ccc(C)cc2C)ccc1OCC(=O)N1CCCCC1,-1.4%,3,19%[15.4 µM],7%,-3.5,3%,-8
COc1ccc(NCc2ccc(OC)c(Cn3ccnc3)c2)c(OC)c1,0.4%,16,4%[15.4 µM],4%,3.9,11%,60
CCOC(=O)[C@H]1[C@H]2COc3ccc(Cl)cc3[C@@H]2N2C(=O)c3cc(OC)ccc3NC(=O)[C@@]12C,-29%,12,-28%,.,.,-7%,2
COc1ccc(OC)c(C2C(C(C)=O)=C(O)C(=O)N2CCC(=O)O)c1 (centres undefined),-1.8%,7,23%,-2%,0.9,7%,7
CCC1CCCCN1C(=O)COC(=O)c1cc(C)nc2ccccc12 (centres undefined),-17%,-18,-33%[inhibitor],.,.,-16%,-7
COc1ccc(CCNC(=O)CCNC(=O)c2ccccc2Cl)cc1,-1.9%,-3,4%[15.4 µM],8%,2.9,-9%,21
O=C(CS(=O)(=O)c1ccc(F)cc1)N1CCOCC1,-1.2%,6,41%,29%,.,21%,17
COc1ccc(Nc2nnc(-c3ccc(O)cc3)c3ccccc23)cc1,-7.2%,-1,-1%,-18%,1.7,25µM*,-7
SMILES,ClpP mod,TRPV1 PAM,gsp agonist,Sfp PPTase inh,Menin MLL FP FL,gsp antagonist,TRPML1 inh
COc1ccc(CC(=O)N2CCN(c3ccc(F)cc3)CC2)cc1,.,6,-23%,-21%,3.6,7%,3
Cc1cc(C(=O)OCC(=O)Nc2ccc(F)cc2)c(C)o1,0.8%,-15,-1%,2%,4.7,7%,13
O=C1c2ccccc2CC1(Cc1ccccc1)Cc1ccccc1,-0.4%,-14,-16%,0%,-0.9,-3%,-7
CC(C)(C)N1C(=O)c2ccc(C(=O)O)cc2C1=O,-2.3%,-8,2%,17%,2.8,-2%,4
CC1CC(C)CN(C(=O)CCCn2c(=O)c3cccn3c3cccnc32)C1 (centres undefined),-21%,?,?,21%,.,3%,-2
COc1cccc(CNC(=O)COC(=O)/C(C#N)=C/c2ccc(N(C)C)cc2)c1,2.9%,-2,25µM*,.,.,11%,-5
COc1cc(NC(=O)CSc2nnc3ccc(-c4cccnc4)nn23)cc(OC)c1,0.6%,7,-4%[15.4 µM],.,.,-11%,16
COc1ccc2nc(C)cc(SCC(=O)Nc3c(C)cc(C)cc3C)c2c1,-21%,.,40%,-10%,4.8,22%,-10
O=C(CCSc1ccccc1)NCC1CCCO1 (centres undefined),-1.0%,2,10%[15.4 µM],10%,6.8,1%,38
COc1ccc(C2=Nn3c(nnc3-c3ccncc3)SC2)cc1OC,0.3%,5,26%,-17%,-0.9,14%,5
COc1ccc(OC)c(N(CC(=O)NCc2ccccn2)S(C)(=O)=O)c1,-1.0%,1,-6%,15%,-1.8,5%,-1
CC1CCCCN1CCCNc1ccc(C(CC(N)=O)NC(=O)c2ccccc2)cc1[N+](=O)[O-] (centres undefined),1.5%,-7,.,1%,-2.2,8%,-8
CCOc1ccc(Br)cc1S(=O)(=O)Nc1cccc(S(=O)(=O)N(CC)CC)c1,-3.6%,20,21%[15.4 µM],13%,4.3,-42%,-14
Clc1ccc(C2=NOC(c3nnc(-c4ccccc4)o3)C2)cc1 (centres undefined),-0.4%,-9,.,19%,-5.5,1%,17
O=C(c1cc(C2CC2)on1)N1CCN(c2ccc(F)cc2)CC1,-0.5%,-21,-42%[inhibitor],-3%,2.4,-2%,-18
C[C@@H]1O[C@@H](Oc2c(-c3cc(O)c(O)c(O)c3)oc3cc(O)cc(O)c3c2=O)[C@H](O)[C@H](O)[C@H]1O,1.8%,9,.,32µM*!,0.3&3.1,-5%,-3

# Hits appear at their usual frequency. Share with any hit: about 4.9%.
